Vaccinia Venus: vaccinia inhibition (Venus reporter); Vaccinia virus Venus reporter expression, fluorescence; Potency, µM (highest dose often 36.5 µM), for inactives: at the top dose activity change, negative = inhibition, actives largely listed as inhibitors; 330,000 compounds, 0.46% hits; AID 720580; active means well fitted inhibition curve with a large enough effect; inconclusive means small, poorly fitted or top-dose-only effect; inactive means no such curve, though single readings can be large or run the other way; tested in A549 cells; further: nearly all actives have a fitted effect of over 30% in size; inactives centre near -10
VACV mCherry inh: inhibitors of vaccinia virus infection (mCherry reporter signal); 310,000 compounds, 0.63% hits; AID 720579; Potency, µM (doses to about 36.5 µM), inactives show at the top dose activity change, negative = inhibition, usual class: inhibitors; Vaccinia virus mCherry reporter infection, fluorescence; about a quarter of the inactives have no number; active = well fitted inhibition curve with a large enough effect; inconclusive = small, poorly fitted or top-dose-only effect; inactive = no such curve, though single readings can be large or run the other way; tested in A549 cells; further: nearly all actives have a fitted effect of over 35% in size; inactives centre near -10
The depositor's hits bear a star; i = inactive; ? = inconclusive; nt = not tested or not shown; & = joins results of further samples; [ ] = remark or other dose. On the % scale 0 is the no-effect control and ±100 the full control effect; potency means the concentration at half of the fitted maximal effect. This is a random part of the collection; 0.87% or so of the library scored in one or more.

SMILES	Vaccinia Venus	VACV mCherry inh
O=c1c(Cc2ccc(F)cc2)c(O)ccn1Cc1cccc(Cl)c1	-21.0%	nt
O=C(CNC(=O)Cc1ccccc1)N=Nc1c(O)[nH]c2ccc(Br)cc12	-20.7%	-26.9%
COc1ccc(NC(=O)COc2ccc(/C=N/NC(=O)c3cccnc3)cc2OC)cc1	-1.1%	-20.1%
COc1ccc([C@H]2N[C@]3(CCCN(Cc4ccc(C(F)(F)F)cc4)C3=O)[C@H]3C(=O)N(C)C(=O)[C@@H]23)cc1	-20.0%	-12.0%
CN(C)CCCNC(=O)C[C@H]1C[C@H](C(=O)N2CCOCC2)[C@@]2(C)c3[nH]c4ccc(Cl)cc4c3CCN2C1=O	-1.0%	i
COc1ccc(C2=C(CN(C)C)C(c3ccccc3)c3ccccc3O2)cc1 (centres undefined)	?	nt
COCCn1c(SCC(=O)NNC(=O)c2ccc(OC)c(OC)c2)nc2ccccc2c1=O	-1.1%	-7.5%
Cc1ccccc1Cn1c(-c2cccs2)nc2ccccc21	-4.4%	-3.1%
C/C(=N\N=C1/NC(=O)C(C)S1)c1ccco1 (centres undefined)	8.9%	12.2%
O=C(Cn1c(=O)c2sccc2n(CC(=O)Nc2ccc(Cl)cc2Cl)c1=O)NCCc1ccccc1	1.4%	-16.3%
CCCCNC(=O)CCc1nc2cccnc2n1Cc1ccc(OC)cc1	-11.1%	-22.0%
CCn1nc(C(=O)NCCc2ccc3c(c2)OCCO3)c2ccccc2c1=O	-26.3%	?
COc1ccc2[nH]c(=O)c(CN(C(=O)COc3ccccc3)C(C)C)cc2c1	-12.8%	nt
COc1ccc(/C=N/NC(=O)COc2cccc3cccnc23)cc1OC	-10.0%	-25.3%
Cc1ccc(N(C(=O)c2csnn2)C(C(=O)NC2CCCC2)c2ccccn2)cc1 (centres undefined)	-2.1%	2.7%
COc1ccc(OCC(=O)Nc2ccc(S(=O)(=O)N3CCN(C)CC3)cc2)cc1	-4.8%	-6.7%
O=C(CSc1nnc(-c2ccncc2)n1-c1ccc(Cl)cc1)Nc1ccc(C(=O)O)cc1	6.9%	3.6%
Cc1ccc(Sc2cc(C)nc(-c3ccccn3)n2)cc1	-5.4%[7.34 µM]	-9.7%[7.34 µM]
COc1ccc(NC(=S)N(CCCN2CCCCC2)Cc2cccs2)cc1	-12.7%	-19.3%
Cc1ccc(C)c(N2CCN(C(=O)C3CCCN(S(=O)(=O)c4cccc5nonc45)C3)CC2)c1 (centres undefined)	-10.3%	-27.6%
CC1CCCN(C(=O)Cn2cnc3c2c(=O)n(C)c(=O)n3C)C1 (centres undefined)	3.1%	0.6%
CCN(CC(=O)Nc1ccccc1OC)C(=O)CSCc1c(C)noc1C	-1.7%	-6.4%
CCOCCc1nn2c(=O)cc(COC(=O)Cc3ccccc3)nc2s1	-9.5%	-7.1%
O=C(COC(=O)CCCC1=NS(=O)(=O)c2ccccc2N1)Nc1ccccc1	-2.1%	-1.8%
CCOCCCn1c(SCC(=O)Nc2cc(C(C)(C)C)nn2-c2ccccc2)nc2ccccc2c1=O	-1.0%	-13.0%
Cn1c(=O)n(Cc2ccccc2Br)c2ccccc21	-20.9%	-28.1%
CCCCC(=O)Nc1cc(C)c(O)c(-c2nc3ncccc3o2)c1	-6.3%[7.34 µM]	-13.7%[7.34 µM]
CN(C)c1nc(SCCOC(=O)Nc2ccccc2)nc(N(C)C)n1	-12.8%	-12.6%
Cc1ccc(S(=O)(=O)Nc2nc3cc(C)c(C)cc3[nH]2)cc1	?	-24.1%
CC1CCC(NC(=O)COc2ccccc2C(N)=O)CC1 (centres undefined)	0.1%	-6.1%
Oc1ccc(CCC2CCCCN2Cc2nc(C3CC3)no2)cc1 (centres undefined)	-2.1%	-6.6%
O=C(NCc1cccs1)c1csc2c1CCCCC2	-17.0%	-28.6%
CCOC(=O)c1c(NC(=O)C2c3ccccc3Oc3ccccc32)sc(C)c1C	-12.8%	-4.3%
CCc1cccc(C)c1NC(=O)CCS(=O)(=O)c1cc(Br)cc2c1N(C(=O)C1CC1)CC2	-15.4%	-19.4%
Cc1ccc(C(=O)NC(=S)NCc2cccnc2)c(C)c1	-8.1%	i
Cc1cccc(C(=O)NCC(=O)N2CCN(c3ccc(Cl)cc3)CC2)c1	-20.5%	-4.8%
CC(C(=O)OCC(=O)NC1CCCC1)N1C(=O)c2ccccc2C1=O (centres undefined)	0.6%	i
O=C(N/N=C/c1ccc[nH]1)c1cc(-c2ccc(Cl)cc2)nc2ccccc12	?	?
C(#Cc1ccccc1)CN1CCN(c2ccccn2)CC1	0.0%&-15.6%	-7.3%&-21.6%
Cc1cc(C)c(C#N)c(SCC(=O)Nc2ccccc2C)n1	-11.6%	-1.6%
COc1ccc(C2CC(=O)c3cnc4c(-c5ccccc5)c(C)nn4c3C2)cc1OC (centres undefined)	-18.4%	-18.3%
COc1ccc(C2NC(=S)N(c3ccccc3)C(C)=C2C(=O)Nc2ccccc2)cc1 (centres undefined)	-5.3%	-12.7%
CCCCNC(C(=O)Nc1ccc(Cl)c([N+](=O)[O-])c1)c1ccccc1 (centres undefined)	-13.7%	-12.5%
CC(C)Cc1ccc(C(C)C(N)=NCCc2ccccc2)cc1 (centres undefined)	-22.4%	?
CC(C)C(=O)NCC(c1ccc2c(c1)OCO2)N1CCN(c2ccccc2F)CC1 (centres undefined)	-1.7%	-7.9%
Cc1nc(NCC2CCCO2)c2nnn(Cc3ccccc3)c2n1 (centres undefined)	-11.2%	-12.2%
Cc1nn(-c2ccccc2)c(N2CCCCC2)c1/C=N/O	-12.4%	-8.3%
COc1cc(OC)cc(C(=O)N[C@H](C(=O)Nc2ccc3c(c2)OCO3)C(C)C)c1	-21.5%	-24.6%
S=c1nc(C2CC2)[nH]c2ccccc12	-4.1%	i
CCOc1ccc(C(=O)Cc2cc3cccc(OC)c3oc2=O)cc1	-5.3%	?

Two entries from above, reformatted.
| SMILES | Vaccinia Venus | VACV mCherry inh |
| --- | --- | --- |
| O=C(CNC(=O)Cc1ccccc1)N=Nc1c(O)[nH]c2ccc(Br)cc12 | -20.7% | -26.9% |
| COc1ccc(NC(=O)COc2ccc(/C=N/NC(=O)c3cccnc3)cc2OC)cc1 | -1.1% | -20.1% |

Further records.
SMILES	Vaccinia Venus	VACV mCherry inh
CC(C)NC(=O)NC(=O)COc1cccc2c1OC(C)(C)C2	-21.2%	-16.2%
COC(=O)C1=C(C)NC(=O)/C1=C\c1cc(C)n(-c2ccc(F)cc2)c1C	-13.3%	-17.2%
Cc1ccc(S(=O)(=O)N2CCC(C(=O)Nc3nnc(-c4ccc(F)cc4)s3)CC2)cc1	-5.6%	i
O=S1(=O)CCO[C@H]2CCCC[C@@H]2N1Cc1ccccc1Br	-16.2%	-19.6%
CCCC(=O)NCCc1nc2ccccc2n1CCC	-4.4%	-17.2%
COc1ccc(NC(=O)COCc2cc(-c3cccs3)on2)cc1	-12.8%	-14.0%
O=C(c1ccccc1)N1CCN(C(=O)c2ccccc2)CC1	-11.8%&-15.7%	-6.6%
CN(Cc1ccccc1)C(=O)c1ccco1	-5.4%	i
CN1C(C(=O)NCC2CC2)CC2Cn3c(nc4ccccc43)C21 (centres undefined)	-4.2%	i
Cc1cc(NC(=O)CCCC(=O)O)nc(C)n1	-1.1%	-8.7%

Quoted from the entries so far for reference:
SMILES	Vaccinia Venus	VACV mCherry inh
CCCC(=O)NCCc1nc2ccccc2n1CCC	-4.4%	-17.2%
COc1ccc(NC(=O)COCc2cc(-c3cccs3)on2)cc1	-12.8%	-14.0%
O=C(c1ccccc1)N1CCN(C(=O)c2ccccc2)CC1	-11.8%&-15.7%	-6.6%
CN(Cc1ccccc1)C(=O)c1ccco1	-5.4%	i
CN1C(C(=O)NCC2CC2)CC2Cn3c(nc4ccccc43)C21 (centres undefined)	-4.2%	i
Cc1cc(NC(=O)CCCC(=O)O)nc(C)n1	-1.1%	-8.7%

(listing goes on)
SMILES	Vaccinia Venus	VACV mCherry inh
CN1CCN(c2oc(-c3ccccc3)nc2S(=O)(=O)c2ccccc2)CC1	5.7%	-2.8%
Cc1cc(C)c2c(=O)cc(C(=O)Nc3nc4ccc(F)cc4s3)oc2c1	-0.4%	4.5%
O=C(Nc1cccc(C(=O)OCc2cc(=O)n3c4c(sc3n2)CCCC4)c1)c1ccccc1	-10.4%	-9.3%
Cc1nc(Cc2nnc(SC(C)C(=O)Nc3cccc(C#N)c3)o2)cs1 (centres undefined)	-12.7%	-14.1%
CCc1ccc2c(COC(=O)CNS(=O)(=O)c3ccc(NC(C)=O)cc3)cc(=O)oc2c1	-14.6%	-13.2%
CCCn1c(SCC(=O)Nc2nnc(C)s2)nnc1-c1ccoc1C	-8.1%	-3.7%
COc1ccc(Br)cc1CNC(C)c1ccccc1 (centres undefined)	?	-10.4%
O=C1CNC(=O)N1Cc1ccc(Br)cc1	-6.4%	-19.4%
O=C(CNC(=O)Cc1ccccc1)NCc1cccs1	4.9%	i
OC(CN(Cc1ccccc1)Cc1ccccc1)c1ccccc1 (centres undefined)	4.9%	-15.4%
COc1ccc(N/N=C(\C#N)C(=O)NCCc2ccc(OC)c(OC)c2)cc1	-16.6%	-20.9%
CC1CCN(C(=O)c2ccc(NC(=O)c3cccs3)cc2)CC1	-2.6%	-2.1%
O=C(NC(=S)Nc1ccc2c(c1)OCO2)c1ccc(Cl)cc1	-18.6%	i
S=C(c1ccco1)N1CCOCC1	-9.9%	-16.9%
CC(=O)NCCNc1nc2cc(-c3ccc4c(ccn4C)c3)sc2c(=O)n1C	-16.7%	i
CC[C@H](C)Cc1cn([C@@H](CCCN=C(NC(=O)OC(C)(C)C)NC(=O)OC(C)(C)C)C(=O)NCCCCCCCCCCC(=O)N2CCN(C(=O)OC(C)(C)C)CC2)nn1	?	i
Cc1ccc(NC(=O)C(NS(=O)(=O)c2cccc3nsnc23)C(C)C)nc1 (centres undefined)	-11.6%	i
COc1cc2c(cc1OC)C(c1cc(OC)c(O)c(OC)c1)CC(=O)N2 (centres undefined)	2.0%	7.7%
COCCN=C1NN=C(c2ccc(NC(C)=O)cc2)CS1	-8.4%	-12.6%
Cc1cc2c(cc1C)NC(=O)C(C)CN2 (centres undefined)	2.7%	?
COc1ccc(C)cc1S(=O)(=O)N(CC(=O)Nc1cccc([N+](=O)[O-])c1)c1ccc(C)cc1	-9.5%	-23.3%
Cc1c(Cl)c(C(F)(F)F)nn1CC(=O)N1CCSCC1	-15.9%	-2.2%
c1ccc(CSc2nnc(NC3=NCCCCC3)s2)cc1	-27.5%	-8.6%
Cc1cscc1-c1cc2nc(NCCCN(C)C)n(C)c(=O)c2s1	-19.1%	i
O=C(CCNC(=O)c1ccc([N+](=O)[O-])cc1)Nc1ccccc1N1CCCC1	-0.2%	-9.1%
O=C(/C=C/c1ccc(OC(F)F)cc1)Nc1cccc(S(=O)(=O)N2CCOCC2)c1	?	-17.8%
CC(C)(C)C(=O)NCCc1nc2ccccc2n1CCCCOc1ccccc1	-11.5%	-3.1%
COc1ccc(C2NCc3ccccc3-n3cccc32)cc1 (centres undefined)	-17.9%	?
COc1ccc(NC(=O)CSc2nnnn2C2CCCCC2)c(OC)c1	-6.7%	i
O=C(Cn1cc(C(=O)C(F)(F)F)c2ccccc21)NCc1ccco1	?	-10.2%
OCCN(CCCn1c(-c2ccncc2)nc2ccccc21)c1nc(CN2CCCCC2)cs1	-5.8%	17.6%
CCOc1ccc(NC(=O)CC2C(=O)N(c3ccc(OC)cc3)C(=O)N2C2CCCCC2)cc1 (centres undefined)	-6.0%	-4.7%
CN(C(=O)COC(=O)c1ccc(Br)c([N+](=O)[O-])c1)c1c(N)n(Cc2ccccc2)c(=O)[nH]c1=O	-20.0%	i
CCOC(=O)C(CO)(NC(C)=O)C(=O)OCC	1.5%	-1.4%
Cc1ccc(S(=O)(=O)N2CCC(n3nnc4cc(C)ccc43)CC2)cc1	-16.7%	-14.1%
CSCCCc1cn([C@@H](CO)C(=O)NCCCCCCCCCCC(=O)N2CCNCC2)nn1	0.1%	i
CC(=O)Nc1cc(-c2cccc(C(=O)NCCN(C)C)c2)cn2c(-c3ccccc3)cnc12	?	?
CC(OC(=O)C1CC(=O)N(Cc2ccccc2)C1)C(=O)Nc1ccc(F)cc1Cl (centres undefined)	-2.4%	-17.1%
COCCCNC(=O)c1ccc(-c2csc(C)n2)cc1	-4.2%	2.2%
COC(=O)c1ccc(OCCN2CCCCCC2)cc1	-2.9%	-29.2%
NC(=O)CSc1oc(-c2cccs2)nc1S(=O)(=O)c1ccccc1	-12.8%	nt
CCc1cc(C(=O)NCC(c2ccc(OC)cc2)N2CCOCC2)sc1C (centres undefined)	-8.4%	i
COc1cc(/C=C/C(=O)c2c(O)n(CCc3ccccc3)c(=O)[nH]c2=O)ccc1O	-3.9%	?
Cc1ccc2[nH]c(=O)c(CN(Cc3nnnn3Cc3ccccc3)C3CCCC3)cc2c1	-9.3%	-5.7%
Cc1ccc2c(c1)N(N=O)CCC2	-8.6%	-7.6%
CCN(CC(=O)NCc1ccc(Cl)cc1)C(=O)/C=C/c1ccc(C#N)cc1	5.6%	-11.0%
Cc1ccc(C(=O)Nc2ccccc2)cc1S(=O)(=O)Nc1ccc(Br)cc1	-23.0%	-9.0%
CCOc1ccccc1N1CC(c2nc3ccccc3n2CCOc2ccc(C(C)(C)C)cc2)CC1=O (centres undefined)	7.7%	-14.5%

Source: PubChem
